Source: PubChem
HIV TAR-Tat = TAR RNA-Tat peptide displacers, HIV-1, primary screen, biochemical, FRET, FAM/TAMRA-labeled Tat; HIV-1 TAR RNA, Tat peptide displacement FRET; active compounds read high; z-score (concentration not given with the values); AID 1259389, 2018; hit rate 0.6% among 100,000;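 note: score is relative to mean and SD of negative controls; some compounds called inactive have numbers as strong as hits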
CDC25B CDK2 inh = primary biochemical HTRF screen for blockers of M-phase inducer phosphatase 2 binding to CDK2/cyclin A; AID 1259370, 2018; P30305+P24941; z-score (concentration not given with the values); HTRF CDC25B-CDK2/CyclinA binding, anti-His/anti-Flag; active compounds read high; hit rate 0.72% among 94,000;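 note: score is relative to mean and SD of negative controls; strong numbers were not always called active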
* = called active by the depositor; nt = not tested or not shown.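 Rule for the calls: active = z-score from 3 up in half or more of its runs; inactive = the rest.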 Rows were taken by chance; any-hit rate near 0.97%.

canonical_smiles | HIV TAR-Tat | CDC25B CDK2 inh
O=C(Nc1cccc2nsnc12)c1[nH]nc2c1CCc1ccccc1-2 | -4.4 | nt
NC(=S)c1ccc[n+]([C@@H]2O[C@@H](COP(=O)([O-])OP(=O)(O)OC[C@H]3O[C@@H](n4cnc5c(N)ncnc54)C(OP(=O)(O)O)[C@H]3O)C(O)C2O)c1 (stereo partly drawn) | nt | -0.91
CC(C)CNC(=S)N1CCCC1 | nt | -1.1
CC1CCn2c(nc3cc(C(=O)NC4CC4)ccc32)C1 (stereo not drawn) | 0.75 | nt
COc1ccc(/C=C2/NC(=O)CN(C(C)=O)C2=O)cc1 | nt | -1.1
COc1ccc(Br)cc1CN1CCC(N2CCN(CCO)CC2)CC1 | nt | -1.1
O=c1ccc2cc(S(=O)(=O)N3CCOCC3)ccc2[nH]1 | 3.1 | nt
CCn1nnc(NCc2ccc(OCc3ccccc3)cc2)n1 | 1.6 | nt
CN(CP(=O)(O)CN1CCCCC1)S(C)(=O)=O | nt | -1.7
O=C(O)c1ccc2noc(-c3ccc(Cl)cc3)c2c1 | 0.29 | nt
O=C(Nc1ccc2c(c1)OCCO2)C1(c2cccs2)CCOCC1 | 1.7 | nt
Cc1ccc(C(=O)CSc2n[nH]c(-c3ccco3)n2)c(C)c1 | 0.22 | -3.3
CCOc1cc(C2c3c(oc4cc(C)cc(C)c4c3=O)C(=O)N2CCCO)ccc1O (stereo not drawn) | -0.39 | -2.6
Cc1c(CCOC(=O)C2C3CC4CC(C3)CC2C4)sc[n+]1CC(=O)c1ccc(Br)cc1 (stereo not drawn) | nt | 9.1*
COc1cccc(-c2noc3ncnc(NCCO)c23)c1 | 1 | nt
CC1CCN(S(=O)(=O)c2ccc3c(c2)oc(=O)n3CC(=O)N2CC(C)CC(C)C2)CC1 (stereo not drawn) | 0.95 | -1.4
Cc1cccc(OCc2cc(=O)n3c(-c4ccccc4)csc3n2)c1C | 2.7 | -1.3
O=c1ccc(-c2ccc(S(=O)(=O)NCCCN3CCN(c4ccccc4)CC3)s2)n[nH]1 | 0.54 | nt
COC(=O)c1cn(CC(N)=O)c2nc(C)ccc2c1=O | 1.1 | nt
O=C(C1CCCN1c1nnc(N2CCCC2=O)s1)N1CCC(N2CCCCC2)CC1 (stereo not drawn) | 2.4 | -2.5
COc1ccc(N2CCCn3c2nc2c3c(=O)n(CC(=O)O)c(=O)n2C)cc1 | -1.2 | -2.7
CC1CCCC(NC(=O)CC(C)(C)CC2=NS(=O)(=O)c3ccccc3N2)C1C (stereo not drawn) | 2.8 | nt
O=c1[nH]nc(CSc2ccc(Cl)cc2)n1-c1ccccc1 | nt | -1.6
COC(=O)c1cc(/C=N/NC(=O)c2cccc([N+](=O)[O-])c2)cn1C | nt | -1.7
Cc1ccc(Nc2c(-c3ccc(Cl)cc3)nc3nc[nH]n23)cc1 | 0.31 | 1.4
CCCCCN(CCS(=O)(=O)N1CCNCC1)S(=O)(=O)c1ccccc1 | 1.7 | nt
CCCCc1c(COC)nc(-c2ccc(Cl)cc2)[nH]c1=O | nt | -1.3
Cc1ccccc1Cn1cccc1CNS(=O)(=O)c1ccc2c(c1)CCCC2 | 0.82 | nt
Fc1ccc(-c2nnc(Cc3ccc(Cl)cc3)o2)cc1 | -0.83 | 0.28
CCc1ccccc1N(C)S(=O)(=O)c1c(C)noc1/C=C/N(C)C | -1.1 | nt
O=S(=O)(NCc1cn2ccccc2n1)c1ccc(F)cc1 | nt | -0.82
CCCCCCCCCCCCCCCCOP(=O)([O-])OCC[N+](C)(C)C | 0.68 | nt
C=CCOC(=O)C1=C(C)Nc2nc(SCCCC)[nH]c(=O)c2C1c1cccs1 (stereo not drawn) | 2.3 | -1.6
O=C(NCc1ccc2c(c1)OCO2)Nc1ccc2nsnc2c1 | nt | -1.6
COc1cccc(N2CCN(C(=O)c3cccn4c(=O)c5sccc5nc34)CC2)c1 | nt | -1.1
Cc1nc(N2CCC(C)CC2)c2c(C)c(C(=O)N3CCCC3)sc2n1 | nt | -1.9
O=C(Nc1nnc(SCc2nnc(-c3ccccc3)o2)s1)c1ccccc1Br | 0.08 | nt
N#CC1=C2SCN(c3ccc(Br)cc3)CN2C(=O)CC1c1ccccc1F (stereo not drawn) | -1.9 | 7.3*
Cc1c(CNC2CCCC2)c(C(=O)O)c(C)n1-c1ccc(Cl)cc1 | 2.1 | nt
CCNc1nc(NCc2ccc(Cl)cc2)c2cnn(C)c2n1 | 2.7 | nt
Cc1ccc(N2CCN(S(=O)(=O)c3ccc4c(c3)oc(=O)n4C)CC2C)cc1 (stereo not drawn) | nt | -0.98
COc1ccc2c(c1)c(N1CCCC1=O)c(C(=O)Nc1ccc(OC)c(OC)c1)n2C | 0.94 | nt
COc1ccccc1N1C(=O)C2CC=C(Cl)CC2C1=O (stereo not drawn) | 1.1 | -1.8
COc1ccc(C2CC(=O)C3=C(C2)NC(=O)CC3c2cc(Br)c(O)c(OC)c2)cc1 (stereo not drawn) | 0.12 | -1.2
CSc1ccccc1N1C(=O)C2C3C=CC(C3)C2C1=O (stereo not drawn) | nt | -1.4
N#Cc1cc2c(nc1SCC(=O)c1ccc(F)cc1)CCC2 | 1.8 | 0.6
COc1ccc2c(c1)-c1nc(NC(=O)c3ccco3)sc1CC2 | 1.3 | -0.9
CCNc1oc(-c2ccc(COc3cccc(C)c3)o2)nc1C#N | -2.2 | -1
S=C(NN=C1CCCC1)NC1CC2C=CC1C2 (stereo not drawn) | nt | -0.71
O=C(NCCc1ccsc1)c1nc(CS(=O)(=O)c2ccccc2)no1 | -0.01 | nt
Cc1ccc(NC(=O)Cn2nc3c4sccc4ncn3c2=O)c(C)c1 | 0.04 | nt
CC1CCC(NC(=O)Cn2c(=O)sc3ccccc32)CC1 (stereo not drawn) | nt | -0.22
CCc1cc2c3c([nH]c2cc1S(=O)(=O)Nc1ccc(C)c(C)c1)CCCC3=O | 0.58 | nt
Cc1ccccc1CNc1nc2ccccc2n1C | 1.3 | -0.63
CCc1nn2c(=O)cc(CSc3n[nH]c(-c4cccc(C)c4)n3)nc2s1 | 0.83 | nt
COc1ccc(C2C(C(=O)NC(C)C)c3ccccc3C(=O)N2C)cc1 (stereo not drawn) | nt | -1.6

Following part
canonical_smiles | HIV TAR-Tat | CDC25B CDK2 inh
COC(=O)CSc1ccc2nnc(-c3ccc(Cl)cc3)n2n1 | nt | -1.8
O=C(C(Cc1ccccc1)N1Cc2ccccc2C1=O)N1CCNCC1 (stereo not drawn) | -2.4 | -2.3
CC1=C(C)C(C)=C(C#N)C(=C(C#N)C#N)N1 | nt | -1.2
CC1Sc2ccc(S(=O)(=O)C(C)CC(=O)N3CCc4ccccc43)cc2NC1=O (stereo not drawn) | 17 | nt
CCOC(=O)c1noc2nc(C)nc(NC(C)C)c12 | 0.4 | nt
COc1ccc(CCN2C(=O)CSC2=S)cc1OC | nt | -2.3
CCc1ccc(S(=O)(=O)Nc2cccc(-c3cn4ccccc4n3)c2)cc1 | nt | 0.09
NC(=S)c1cc(C(F)(F)F)cc(C(F)(F)F)c1 | nt | 0.5
CCOC(=O)C(Cc1ccccn1)(C(=O)OCC)c1ccccc1 | nt | -1.9
CCOc1ccccc1CNc1nc2ccccc2n1CCN(CC)CC | -0.03 | 1.1
OCCNc1ncnc2c1c(-c1ccccc1)c(-c1ccccc1)n2Cc1ccco1 | 1 | 1.5
CCOC(=O)c1ccc2oc(=O)n(C)c2c1 | 2.4 | nt
Clc1ccc(Cc2nnc(-c3ccccc3Br)o2)cc1 | -0.45 | 1.3
Cc1nn(-c2nncc(-c3ccccc3)n2)c2c1C(c1ccccc1Br)CC(=O)N2 (stereo not drawn) | 0.8 | -2
CCCN(CCC)S(=O)(=O)c1ccc2c(c1)CC(C)N2C(C)=O (stereo not drawn) | 2.6 | nt
O=C(O)c1cnn(-c2ccc(Cl)cc2)c1C1CCNCC1 | 0.06 | 0.24

Reformatted with two lines to a compound: 6 of the compounds above
Screens in order: HIV TAR-Tat	CDC25B CDK2 inh
> CCCCc1c(COC)nc(-c2ccc(Cl)cc2)[nH]c1=O
    nt	-1.3
> COc1ccc(N2CCCn3c2nc2c3c(=O)n(CC(=O)O)c(=O)n2C)cc1
    -1.2	-2.7
> CC1CCn2c(nc3cc(C(=O)NC4CC4)ccc32)C1 (stereo not drawn)
    0.75	nt
> COC(=O)CSc1ccc2nnc(-c3ccc(Cl)cc3)n2n1
    nt	-1.8
> O=C(O)c1ccc2noc(-c3ccc(Cl)cc3)c2c1
    0.29	nt
> CCOc1cc(C2c3c(oc4cc(C)cc(C)c4c3=O)C(=O)N2CCCO)ccc1O (stereo not drawn)
    -0.39	-2.6

(next part)
canonical_smiles | HIV TAR-Tat | CDC25B CDK2 inh
COC(=O)C1C(=O)C2=C(CC1C)NC(C)=C(C(=O)OCc1ccc(OC)cc1)C2c1ccc(C)s1 (stereo not drawn) | 0.58 | -0.05
Cc1ccc2c(=O)cc(CSc3nnc(NC(=O)C(C)C)s3)[nH]c2c1 | -6.5 | nt
CCN(CC)CCn1c(C)c(C)c2c1ncn1nc(-c3cccs3)nc21 | 0.89 | -1.1
O=C(c1ncn[nH]1)N(Cc1cc2ccccc2[nH]c1=O)c1ccccc1 | 2.6 | -1.2
Cc1ccn2c(Nc3ccc4c(c3)OCCO4)c(-c3ccsc3)nc2c1 | nt | -1.3
COC(=O)NC(NS(=O)(=O)c1ccccc1)(C(=O)OC)C(F)(F)F (stereo not drawn) | nt | -0.49
CCOC(=O)c1[nH]c(C)c(C(=O)NCCN2CCCCCC2)c1C | nt | 0.85
C1N2CN3CN1CN(C2)C3 | -0.17 | nt
CCOC(=O)c1cnc(SCc2nc(-c3ccccc3)oc2C)nc1N | 0.54 | nt
C1C2C3C4OC5C3C1C1C2C4C51 (stereo not drawn) | nt | -1.2
NC(=O)CN1C(C(=O)c2ccccc2)=C(N2CCOCC2)c2ccccc2S1(=O)=O | 0.54 | -1.1
CN(Cc1ccccc1)C1CCN(Cc2ccccc2F)CC1 | nt | 0.55
CCOc1ccc(CN=C2NS(=O)(=O)C(c3ccc(C)c(C)c3)=C2C)cc1 | 1.5 | -1.3
COc1ccc(OC)c(Nc2ncc3c(n2)CCN(Cc2ccc(OC)c(OC)c2)C3)c1 | 1 | nt
CCCCCC(C)n1[nH]c(=O)c2c(C)cc(C)nc21 (stereo not drawn) | 1.2 | 2.1
COc1ccc(CN=C2NS(=O)(=O)C(c3ccc(F)cc3)=C2C)cc1 | 1.6 | nt
C[C@@H]1C(=O)[C@H](C)[C@@H](c2cccs2)N(C(=O)Nc2ccccc2F)[C@H]1c1cccs1 | 1.9 | -2.1
CCOc1ccc(Cc2nccc3cc(OCC)c(OCC)cc23)cc1OCC | 1.3 | nt
Cc1cc2[nH]c(=O)[nH]c2cc1NS(=O)(=O)c1ccc(C2CCCCC2)cc1 | -0.35 | nt
O=S(=O)(c1cccs1)N1CCN(c2ccccc2)CC1 | 1 | -0.36
O=C(c1cc2c(s1)-c1ccccc1OC2)N1CCN(c2ccc(F)cc2)CC1 | -1.3 | -0.09
CCCn1cc(S(=O)(=O)c2cccc(Cl)c2)c(=O)c2cc(F)c(N3CCOCC3)cc21 | -0.15 | nt
CS(=O)(=O)Nc1ccc2c(c1)N(S(C)(=O)=O)CCC2 | 1.8 | nt
COc1cccc(C2NC(=O)c3n[nH]c(-c4cccs4)c32)c1 (stereo not drawn) | -1.9 | 2.5
O=C(Nc1ccc(F)cc1F)C1CCC(=O)N1S(=O)(=O)c1ccccc1 (stereo not drawn) | 1.1 | nt
CCc1cccc(CC)c1NC(=O)/C=C/c1cccs1 | nt | -2.3
CSc1ccc(C2C(C(=O)OC3CCCC3)=C(C)NC3=C2C(=O)CCC3)cc1 (stereo not drawn) | -0.11 | -1.5
O=C(NCC(c1ccc2c(c1)OCO2)N1CCOCC1)C(=O)NC1CCCC1 (stereo not drawn) | 1.1 | nt
O=C(CSc1nc(-c2ccccc2)nc2cc(=O)[nH]n12)NCCCc1ccccc1 | -0.3 | nt
O=C1c2ccccc2C(=O)c2c(Sc3cccc4c3C(=O)c3ccccc3C4=O)cccc21 | nt | -0.63
COc1cc(C2CC(=O)NC3=C2C(=O)CC(C)(C)C3)ccc1O (stereo not drawn) | 0.04 | -1
CN1C(=O)C(C)(C)c2cc(S(=O)(=O)N3CCC(N(C)CCCN4CCOCC4)CC3)ccc21 | -0.68 | nt
Cc1nn(-c2ccccc2)c(C)c1Sc1ccccc1 | -0.02 | -1.8
COc1ccccc1Nc1nc(Nc2ccccc2F)nc(N)c1[N+](=O)[O-] | 0.24 | nt
CC(C)OCCCNS(=O)(=O)c1ccc2[nH]c3c(c2c1)CCCC3 | 0.82 | nt
CCOc1ccc(C2CC(=O)NC(SCC(=O)OC(C)C)=C2C#N)cc1 (stereo not drawn) | -0.76 | -2
O=C(Nc1ccc(Cl)cc1F)C1CCN(S(=O)(=O)c2cnc[nH]2)CC1 | -0.56 | -1.6
CCOC(=O)c1c(C)oc2nc(C)nc(NCCN(Cc3ccco3)C3CCCC3)c12 | 0.24 | nt
COc1ccc(-c2csc3ncnc(NCCN(C)C)c23)cc1 | 0.87 | nt
COc1c(Cl)cc(Cl)c(OC)c1C(=O)NNc1cc(Cl)ccc1Cl | nt | -0.37
COCCCn1c(-c2ccncc2)n[nH]c1=S | nt | -1.4
CCCCC(=O)Nc1nnc2n1CCS2 | 1.3 | nt
O=C1CCCc2oc3c(Cl)cc(NS(=O)(=O)c4ccc(Br)cc4)cc3c21 | nt | -1.8
Cc1oc(-c2cccs2)nc1Cn1c(SCc2cccc(F)c2)nc2cccnc21 | -1.2 | nt
CCc1nn(CCCC(=O)N2CCCCC2)c(=O)c2cc3oc(C)cc3n12 | -0.08 | -1.1
